# High-throughput results deposited in PubChem by National Center for Advancing Translational Sciences (NCATS).
# TRPML1 agonist = qHTS for Agonists of the Human Mucolipin Transient Receptor Potential 1 (TRPML1); hit rate 0.12% among 410,000; Mucolipin-1 (Homo sapiens), Q9GZU1; TRPML1-expressing cells, Ca2+ dye fluorescence, FDSS; host cell line not named in the record; reference of the full effect not given here; AID 624414, 2012; activation, % (concentration not given with the values); in the data active = activation above about 50%; inconclusive = about 30% to 50%; inactive = below about 30%; further: 0% is about no effect; the text of the record puts the active cut at 80%
# Target sequence (Q9GZU1 whole entry, looked up): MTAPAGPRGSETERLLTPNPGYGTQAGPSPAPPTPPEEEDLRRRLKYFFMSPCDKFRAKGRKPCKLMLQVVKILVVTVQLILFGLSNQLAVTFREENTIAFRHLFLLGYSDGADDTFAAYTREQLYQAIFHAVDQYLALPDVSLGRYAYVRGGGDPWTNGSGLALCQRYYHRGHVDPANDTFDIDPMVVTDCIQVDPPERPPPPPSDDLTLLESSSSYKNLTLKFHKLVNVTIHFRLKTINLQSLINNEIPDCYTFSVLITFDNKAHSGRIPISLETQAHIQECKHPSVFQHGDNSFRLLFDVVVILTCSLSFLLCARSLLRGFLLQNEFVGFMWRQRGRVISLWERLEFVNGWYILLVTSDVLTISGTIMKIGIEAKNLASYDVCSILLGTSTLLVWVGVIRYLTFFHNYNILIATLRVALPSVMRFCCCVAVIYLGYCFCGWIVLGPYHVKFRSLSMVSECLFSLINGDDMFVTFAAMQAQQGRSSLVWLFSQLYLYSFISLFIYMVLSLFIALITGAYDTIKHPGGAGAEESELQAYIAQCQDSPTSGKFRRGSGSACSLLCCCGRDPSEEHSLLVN
#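 Calcium fluorescence on an FDSS kinetic reader gave the read-out. Tet-induced TRPML1-DL cells were plated overnight, dye-loaded (Ca8 with quencher, 45-90 min, room temperature, dark), then read 110 s after compound addition, and again 110 s after 4uM final 54-4 (EC80).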
# TRPV1 PAM = HTS Assay for Compounds that Act as Potentiators of the Vanilloid Receptor 1; TRPV1-expressing cells, Fluo-8 calcium influx, capsaicin EC20 potentiation; host cell line not named in the record; control for the full effect not named in the record; AID 540277, 2011; hit rate 0.02% among 320,000; Transient receptor potential cation channel subfamily V member 1 (Homo sapiens), Q8NER1; potentiation, % at 8.33 µM; active means potentiation above 80%; inconclusive means 30% to 80%; inactive means below 30%; further: 0% is about no effect
#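 Cells expressing TRPV1 were dye-loaded with Fluo-8 and read kinetically: 10 s baseline, 3 min after compound (agonist portion), then 2 min after EC20 capsaicin (allosteric enhancer portion). Calcium-bound dye fluorescence at 480/520 nm.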
# TRPML1 inh = qHTS for Inhibitors of the Human Mucolipin Transient Receptor Potential 1 (TRPML1). activity change, negative = inhibition, % (test concentration not listed). hit rate 0.02% among 390,000. TRPML1-inducible cells, Ca2+ dye fluorescence, FDSS; hits give low values; inhibition of EC80 agonist-evoked calcium signal. Mucolipin-1 (Homo sapiens), Q9GZU1; in the data active means activity change below about -50%; inconclusive means about -30% to -50%; inactive means above about -30%;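 further: stimulus is agonist 54-4 at its EC80 concentration; on the % scale 0 is the no-effect control and ±100 the full control effect; compound concentration not given in the record; the text of the record puts the active cut at -80%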
#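 Calcium fluorescence in TRPML1-DL cells induced overnight with Tet: a 110 s read after compound pin addition, then a 110 s antagonist read after challenge with 54-4 at 4 uM final (EC80).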
# Six1-Eya2 inh = qHTS Assay for Inhibitors of the Six1/Eya2 Interaction; hit rate 0.56% among 360,000; activity change, % (concentration not given with the values); Homeobox protein SIX1 (Homo sapiens) + Protein phosphatase EYA2 (Homo sapiens), …; AlphaScreen GST-Six1/His-Eya2 binding, biochemical; hits give low values; control for the full effect not named in the record; in the data active = activity change below about -65%; inconclusive = about -30% to -65%; inactive = above about -30%; further: on the % scale 0 is the no-effect control and ±100 the full control effect
#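 AlphaScreen with GST-Six1 and His-Eya2 (5X mix: 250 nM and 500 nM), glutathione donor and nickel acceptor beads; buffer 50 mM Tris pH 8.0, 300 mM NaCl, 1 mM TCEP; 1 h at 37 C in the dark.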
# CtBP-E1A inh = qHTS Assay for Inhibitors of the CtBP/E1A Interaction | CtBP / adenovirus E1A interaction (AlphaScreen) | AlphaScreen GST-E1A/His-CtBP binding, 1536-well; hits give low values; control for the full effect not named in the record | activity change, % (concentration not given with the values) | hit rate 0.49% among 340,000 | AID 651724, 2012; in the data active means activity change below about -65%; inconclusive means about -30% to -65%; inactive means above about -30%; further: on the % scale 0 is the no-effect control and ±100 the full control effect
#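 In 5 uL wells, 23 nL compound meets equimolar GST-E1A and His-CtBP (5X stock 125 nM each) for 2 h, 37 °C. Beads (5X, 50 ug/mL) then 1 h, 37 °C, dark.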
# D2 PAM = Beta-Arrestin HTS for Positive Allosteric Modulators of the Human D2 Dopamine Receptor: Potentiators; hit rate 0.23% among 360,000; potentiation, % (no concentration beside the values); DiscoveRx D2 beta-arrestin cells, luminescence, 90 min; 100% = 57 uM dopamine signal; D(2) dopamine receptor (Homo sapiens), P14416; active = potentiation of 50% or more; inconclusive = 30% to 50%; inactive = 30% or less;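 further: compound concentration not given in the record; tested on top of an EC20 dose of dopamine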
# Target sequence (P14416 whole entry, looked up): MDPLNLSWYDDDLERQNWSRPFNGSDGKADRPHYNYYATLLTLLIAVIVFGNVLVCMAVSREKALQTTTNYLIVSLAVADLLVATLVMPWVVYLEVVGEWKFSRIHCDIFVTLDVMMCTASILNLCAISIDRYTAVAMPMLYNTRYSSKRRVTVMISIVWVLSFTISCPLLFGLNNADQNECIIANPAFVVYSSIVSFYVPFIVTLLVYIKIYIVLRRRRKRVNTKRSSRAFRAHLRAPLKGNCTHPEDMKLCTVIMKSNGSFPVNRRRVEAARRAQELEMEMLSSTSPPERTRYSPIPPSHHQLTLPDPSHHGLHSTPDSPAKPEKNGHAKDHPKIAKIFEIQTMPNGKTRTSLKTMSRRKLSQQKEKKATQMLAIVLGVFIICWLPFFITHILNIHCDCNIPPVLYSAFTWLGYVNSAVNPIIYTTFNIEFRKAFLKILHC
#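 D2 cells co-treated with compound plus 50 nM dopamine (EC20) for 90 min at 37 deg C to detect potentiation. Beta-arrestin recruitment was read as enzyme-fragment luminescence after 1 h at ambient temperature. Full response was set by 57 uM dopamine.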
# The depositor's hits bear a star; ? = inconclusive; . = no result given.
No.	molecule	TRPML1 agonist	TRPV1 PAM	TRPML1 inh	Six1-Eya2 inh	CtBP-E1A inh	D2 PAM
1	O=C(OCc1ccc(Br)cc1)c1cccc(S(=O)(=O)N2CCCC2)c1	0.2	4	67	14	17	-16
2	O=C(CCS(=O)(=O)Cc1cccc(Cl)c1)NCCc1ccccc1	-0.3	-13	15	3	.	-5
3	CCn1ccnc1CNC(=O)c1cc(COc2ccc(F)cc2F)on1	-1.2	7	-4	5	-4	-9
4	COc1ccc(C(=O)N2N=C(c3ccc(NS(C)(=O)=O)cc3)CC2c2cccs2)cc1 (stereo not given)	-0.7	4	-2	-21	-4	6
5	COc1ccc(CC(=O)Nc2ncc([N+](=O)[O-])s2)cc1OC	-0.7	-7	2	?	-21	-10
6	CCN(CC(=O)Nc1ccc(OC)cc1)CC(=O)Nc1sc2c(c1C(=O)OC)CCCC2	-0.5	3	19	-11	.	-10
7	CC(NC(=S)NC(=O)c1ccccc1Br)c1ccccc1 (stereo not given)	2.1	-2	-1	3	3	-4
8	Cc1ccc(NC(=S)N2CCCN(Cc3ccc(F)cc3)C2)c(C)c1	0.3	14	-9	-14	-18	-18
9	CC(=O)c1cccc(NC(=O)C2(C)Cc3c(-c4cccc(C(F)(F)F)c4)ccnc3O2)c1 (stereo not given)	0.0	.	.	-8	-1	-5
10	CCOc1ccc(NC(=S)NC(=O)c2c(Cl)c(C)nn2C)c([N+](=O)[O-])c1	-0.8	20	6	-1	6	-4
11	COc1cc(C)c(C)cc1S(=O)(=O)N1CCN(Cc2ccc3c(c2)OCO3)CC1	0.3	-13	-1	-10	-8	-7
12	CCCCNc1ncnc2c1cnn2-c1ccccc1	0.8	-17	12	-4	-9	6
13	CCNC(=S)N1CCc2cc(OC)c(OC)cc2C1COc1ccc(OC)cc1 (stereo not given)	0.7	6	14	-15	-15	-9
14	CCC(=O)N=C1SC2CS(=O)(=O)CC2N1c1cccc(OC)c1 (stereo not given)	-0.1	12	-6	1	7	27
15	Cc1c(Cl)cccc1NS(=O)(=O)c1cccc2nsnc12	-1.5	-1	-19	-2	8	-7
16	O=C(Nc1cccc2nsnc12)c1cc2c(cc1Cl)Sc1nccn1S2(=O)=O	1.1	.	32	?	20	-20
17	CCOc1ccc(NC(=O)CNC(=O)c2ccc(OC)c(OC)c2)cc1	-0.1	-5	13	13	0	-5
18	CCCn1c(SCCc2ccccc2)nc2c1c(=O)[nH]c(=O)n2C	3.6	-5	16	7	-4	-9
19	CNS(=O)(=O)c1cccc(C(=O)OCCCC(=O)c2ccccc2)c1	-0.2	4	15	-1	4	-1
20	COc1ccc(C(C)=O)cc1CC(=O)NCCCn1ccnc1	-0.3	1	-11	4	-8	-2

# In a second layout: results already given.
[17] CCOc1ccc(NC(=O)CNC(=O)c2ccc(OC)c(OC)c2)cc1
- TRPML1 agonist: -0.1
- TRPV1 PAM: -5
- TRPML1 inh: 13
- Six1-Eya2 inh: 13
- CtBP-E1A inh: 0
- D2 PAM: -5
[7] CC(NC(=S)NC(=O)c1ccccc1Br)c1ccccc1 (stereo not given)
- TRPML1 agonist: 2.1
- TRPV1 PAM: -2
- TRPML1 inh: -1
- Six1-Eya2 inh: 3
- CtBP-E1A inh: 3
- D2 PAM: -4

# (more compounds)
No.	molecule	TRPML1 agonist	TRPV1 PAM	TRPML1 inh	Six1-Eya2 inh	CtBP-E1A inh	D2 PAM
21	Cc1ccc(OCC(=O)NCCNC(=O)c2ccco2)cc1	0.4	13	-10	4	2	-3
22	O=C(CN1C(=O)c2ccccc2C1=O)OCc1nc2ccsc2c(=O)[nH]1	-0.8	-12	-7	-1	.	0
23	COc1ccc(CN2C(=O)C(CC(=O)NCC3CCCCC3)CC(C(=O)N(C(C)C)C(C)C)=C2C)cc1 (stereo not given)	0.2	.	4	-4	2	-1
24	CCNC(=O)C1CCCN(C(=O)c2cccc(C#N)c2)CC1 (stereo not given)	-0.8	.	.	-2	3	1
25	O=C(Nc1ccccc1N1CCCCC1)c1cnccn1	0.5	0	17	8	-6	1
26	Cc1ccccc1OCC(=O)NCC(=O)OCc1ccc(Br)cc1	4.4	-13	-7	15	-2	8
27	COc1ccc(CCN(C)C(=O)c2cc(=O)c3ccccc3o2)cc1OC	-0.1	25	-2	-12	-4	-8
28	O=C1c2ccccc2NC(c2ccccc2)N1Cc1ccccc1 (stereo not given)	0.8	.	0	-5	-2	13
29	NS(=O)(=O)c1ccc(NNC(=O)c2ccccc2C(=O)O)cc1	-0.6	0	31	3	.	-15
30	O=[N+]([O-])c1cn(Cc2ccccc2)cn1	-0.8	-2	41	-2	3	-6
31	CCCNC(=O)C(Cc1ccccc1F)NC(=O)c1ccccn1 (stereo not given)	0.1	1	-20	2	-3	-11
32	NNC(=O)c1cc2ccccc2[nH]1	0.2	6	-8	-8	0	-3
33	O=C1NC(c2ccccc2)CCO1 (stereo not given)	-0.3	16	0	9	-21	-9
34	Cc1cc(=O)[nH]c(SCC(=O)N2c3ccccc3CC2C)n1 (stereo not given)	0.1	3	13	-1	1	-19
35	Cc1ccc(CNc2cccnc2)cc1	2.0	-13	-2	-1	.	1
36	CC(C)OCCCn1c(SCC(=O)N2CCCC2=O)nc2ccccc2c1=O	0.3	6	-15	0	2	-27
37	COc1ccc(/C=N/NC(=O)c2ccc(CSc3nc(C)cc(C)n3)cc2)c(OC)c1OC	2.3	?	-2	2	-6	-7
38	CC[C@@]12C(=O)N(c3ccc(OC)cc3)C(=O)N1[C@H](c1ccc(Cl)cc1)[C@@H]1C(=O)N(C3CCCCC3)C(=O)[C@@H]12	0.6	-16	3	-1	3	-3
39	CC(=O)N(Cc1ccc(Cl)cc1)c1cnccn1	.	-14	.	-23	-5	-12
40	Cc1cccc2cc(C(c3nnnn3C(C)(C)C)N(Cc3ccco3)CC3CCCO3)c(=O)[nH]c12 (stereo not given)	1.1	-15	-10	-17	0	-13
41	O=C(O)c1ccc2oc(=O)c(S(=O)(=O)c3ccccc3)cc2c1	.	-5	.	-3	7	-4
42	Cc1ccc(C)c(NC(=O)/C(C#N)=C/c2ccc[nH]2)c1	0.2	13	24	-1	4	0
43	Oc1cccc(NC(=S)N=Nc2c(O)[nH]c3ccc(Br)cc23)c1	0.5	-11	12	?	?	-7
44	CC(=O)NCCNc1nc2cc(-c3cccc(Cl)c3)sc2c(=O)n1C	-0.7	.	.	1	-7	-3
45	O=C(COC(=O)CNC(=O)c1ccco1)Nc1ccc(Cl)cn1	1.2	-6	-4	10	-3	-1
46	CN(C)C(CNC(=O)c1coc2ccccc2c1=O)c1ccccc1 (stereo not given)	1.1	12	14	-1	-2	-2
47	CN(CC(=O)Nc1cccc(F)c1)C(=O)c1cc(=O)[nH]c2ccccc12	2.6	-2	9	0	-23	-4
48	Cn1nc(C(=O)NCC(=O)Nc2ccc(F)c(F)c2)ccc1=O	0.0	.	-8	4	14	-21
49	COc1cc(C(=O)Nc2oc(-c3ccccc3)c(-c3ccccc3)c2C#N)cc(OC)c1OC	0.7	0	-7	-11	-6	-1
50	CC(/C=C/c1ccc(O)cc1)=N/O	-0.2	-6	-6	5	-3	-7
51	O=C1CSC(=S)N1c1ccccc1	-0.5	.	6	-7	-1	-1
52	Cn1c(Cn2c(=O)sc3ccccc32)nnc1SCC(=O)NC1CCCC1	0.8	17	25	7	-16	0
53	Cc1ccc(S(=O)(=O)N2CCOC2CNC(=O)C(=O)NCCN(C)C)cc1 (stereo not given)	1.0	?	-9	2	3	-5
54	Cn1c(SCC(=O)N2CCCCC2)nc2cccnc21	-0.3	-12	51	1	6	20
55	O=C(CN1CCN(c2ccc(F)cc2)CC1)Nc1cccnc1Cl	1.1	4	-1	3	0	1
56	COc1ccc(C(=O)Nc2nc(-c3ccccc3)c(C(C)=O)s2)c(OC)c1	-0.3	4	-9	1	4	0
57	Cc1[nH][nH]c(=O)c1C(c1ccc([N+](=O)[O-])cc1)c1c(C)[nH][nH]c1=O	-0.3	.	-7	0	1	-12
58	CC(C)C(=O)N1CCC1(C)C(=O)Nc1ccc(-n2cncn2)cc1 (stereo not given)	0.1	.	.	11	4	-7
59	O=C(Cn1nc(-c2ccccc2F)ccc1=O)Nc1ccc(S(=O)(=O)N2CCCCCC2)cc1	0.5	-3	-14	-3	-2	3
60	O=C1c2nc3cc(-c4ccco4)[nH]n3c(=O)c2CN1Cc1ccccc1	1.1	-8	-17	-17	4	-4
61	COc1ccc(N2CCN(Cc3nc4scc(-c5ccccc5)c4c(=O)[nH]3)CC2)cc1	0.2	3	4	-20	?	-5
62	COC(=O)[C@H](CCSC)NC(=O)Cn1cnc2c(SC)nc(N)nc21	-0.1	.	-15	1	4	-2
63	O=C(NCc1cccs1)C1CCN(S(=O)(=O)c2cccs2)CC1	0.5	25	-25	4	11	7
64	Cc1ccc(/C=[N+](\[O-])c2ccccc2C)o1	0.6	-2	-16	5	.	-8
65	Cc1cc(C)c2c(c1)N[C@H](c1cccs1)[C@@H]1CCO[C@H]21	-0.7	.	-6	-14	-4	-5
66	CCC(C)C(NC(N)=O)C(=O)Nc1ccc(OCc2ccccc2)cc1 (stereo not given)	.	-13	.	-12	-13	-5
67	CS(=O)(=O)c1ccc(Cl)c(NC(=O)COc2ccc3c(c2)CCC3)c1	-0.4	1	-11	5	21	19
68	Cc1cccc(C2CC3(CC(C)(C)NC(=S)N3)Oc3cc(O)ccc32)c1 (stereo not given)	1.4	-2	14	2	0	5
69	CN1OC[C@@H]2CN(S(=O)(=O)c3cccc(C(F)(F)F)c3)[C@H](c3ccc(-c4cc5ccccc5o4)cc3)C[C@@H]21	-0.1	.	-9	-6	-22	-5
70	COC(=O)c1ccc(OCC(O)CN2CCOCC2)cc1 (stereo not given)	-0.7	6	-5	-10	.	-6
71	COc1ccc(CC(=O)NNC(=O)c2ccco2)cc1OC	1.0	-2	-10	0	0	1
72	CC(=O)Nc1ccccc1O	-0.7	-3	-5	0	5	-4
73	CN(Cc1cnn(C)c1)C(=O)c1cc(COc2c(F)cccc2F)on1	-0.3	-5	9	-2	1	-3
74	Cc1ccc(F)cc1NC(=O)CSCc1nc2sc(C)c(C)c2c(=O)[nH]1	0.4	-13	-5	5	0	-13
75	Cc1ccc(CN2CCN(Cc3ccc(OC(C)C)cc3)CC2CCO)o1 (stereo not given)	-0.5	-6	10	-9	-3	-7
76	COc1cc2cc(C(=O)O)n(C)c2c(OC)c1OC	-0.2	-8	1	0	4	-23
77	O=C(CC[C@H]1O[C@@H](n2ccc(=O)[nH]c2=O)[C@H](O)[C@@H]1O)NCc1ccco1	0.4	.	-1	-5	5	-2
78	O=C1CCCCC1C(O)(C(=O)c1ccccc1)c1ccccc1 (stereo not given)	0.0	.	31	4	-3	-12
